Source: PubChem
Six1-Eya2 blk = inhibitors of human Six1/Eya2 interaction; Q15475+O00167; activity change, % (concentration not given with the values); 360,000 tested, 0.56% active; AlphaScreen GST-Six1/His-Eya2 binding, biochemical; active compounds read low; control for the full effect not named in the record; in the data active = activity change below about -65%; inconclusive = about -30% to -65%; inactive = above about -30%; note: % is set by controls: 0 for no effect and ±100 for the full control effect
Target sequence (O00167 whole entry, looked up): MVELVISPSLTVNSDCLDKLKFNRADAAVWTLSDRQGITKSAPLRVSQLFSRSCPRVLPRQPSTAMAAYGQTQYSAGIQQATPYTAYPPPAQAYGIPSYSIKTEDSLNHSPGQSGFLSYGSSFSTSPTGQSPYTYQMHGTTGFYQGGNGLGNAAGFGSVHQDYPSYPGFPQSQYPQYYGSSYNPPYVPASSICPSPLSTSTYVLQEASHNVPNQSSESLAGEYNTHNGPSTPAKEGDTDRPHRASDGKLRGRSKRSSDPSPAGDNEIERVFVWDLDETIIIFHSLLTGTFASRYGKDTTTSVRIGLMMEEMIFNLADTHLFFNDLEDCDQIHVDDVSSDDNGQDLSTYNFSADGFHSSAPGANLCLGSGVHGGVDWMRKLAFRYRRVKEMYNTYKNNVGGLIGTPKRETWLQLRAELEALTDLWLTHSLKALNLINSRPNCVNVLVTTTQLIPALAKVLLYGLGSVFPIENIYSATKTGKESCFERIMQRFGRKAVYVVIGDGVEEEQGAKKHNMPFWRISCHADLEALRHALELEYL
Target sequence (Q15475 whole entry, looked up): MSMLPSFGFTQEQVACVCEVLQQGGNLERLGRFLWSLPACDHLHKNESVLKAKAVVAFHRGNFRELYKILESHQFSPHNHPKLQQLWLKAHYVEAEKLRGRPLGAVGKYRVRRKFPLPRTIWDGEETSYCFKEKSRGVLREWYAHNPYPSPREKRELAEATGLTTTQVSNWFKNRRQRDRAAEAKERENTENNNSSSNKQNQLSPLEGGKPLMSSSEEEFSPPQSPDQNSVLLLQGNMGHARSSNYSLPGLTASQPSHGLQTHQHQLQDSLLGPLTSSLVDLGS
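AlphaScreen luminescence read after one hour at 37 °C in darkness. Pin-transferred compounds met GST-Six1 and His-Eya2 protein (5X stock 250 nM/500 nM) plus glutathione donor and Ni-chelate acceptor beads (5X, 50 ug/mL).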
D2 PAM = potentiates the human D2 dopamine receptor allosterically | DiscoveRx D2 beta-arrestin cells, luminescence, 90 min; 100% = 57 uM dopamine signal | potentiation, % (test concentration not listed) | 360,000 tested, 0.23% active; active = potentiation of 50% or more; inconclusive = 30% to 50%; inactive = 30% or less;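 note: compound concentration not given in the record; tested on top of an EC20 dose of dopamine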
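PathHunter beta-arrestin assay in DiscoveRx D2 cells. Compounds were added with an EC20 of dopamine (50 nM final) for 90 min at 37 deg C. Luminescence was read 1 h after detection reagent, with 57 uM dopamine as the EC100 control.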
TRPML1 inh = blocks the human TRPML1 channel. 390,000 tested, 0.02% active. TRPML1-inducible cells, Ca2+ dye fluorescence, FDSS; active compounds read low; inhibition of EC80 agonist-evoked calcium signal. Q9GZU1. activity change, negative = inhibition, % (test concentration not listed). AID 624415; in the data active means activity change below about -50%; inconclusive means about -30% to -50%; inactive means above about -30%;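 note: stimulus is agonist 54-4 at its EC80 concentration; % is set by controls: 0 for no effect and ±100 for the full control effect; compound concentration not given in the record; the text of the record puts the active cut at -80%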
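Tet-induced TRPML1-DL cells loaded with Ca8 no-wash calcium dye were read kinetically on FDSS. Compound addition was followed by EC80 agonist 54-4 (4 uM final); inhibition was read over 110 s.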
TRPML1 ag = activates the human TRPML1 channel; Q9GZU1; TRPML1-expressing cells, Ca2+ dye fluorescence, FDSS; host cell line not named in the record; reference of the full effect not given here; activation, % (test concentration not listed); 410,000 tested, 0.12% active; in the data active = activation above about 50%; inconclusive = about 30% to 50%; inactive = below about 30%; note: 0% is about no effect; the text of the record puts the active cut at 80%
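Tet-induced TRPML1-DL cells, 1,500 per well, cultured overnight, were loaded with a no-wash Ca2+ dye for 45–90 min. Calcium fluorescence was recorded on the FDSS for 110 s after compound addition, before the EC80 agonist (4 uM 54-4) was added.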
PINK1 expr mod = modulators of PINK1 expression | PINK1 immunofluorescence, high-content cytometry, 24 h | Potency, µM (series often up to 76.6 µM), for inactives: at the top dose activation (PINK1 increase), actives largely listed as activators | 410,000 tested, 0.2% active | AID 624263; active = well fitted activation curve with a large enough effect; inconclusive = small, poorly fitted or top-dose-only effect; inactive = flat fitted curve, though single readings scatter; cell line not stated here;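 note: potency is the fitted concentration of half-maximal effect; % of control where 0% means no effect; nearly all actives have a fitted effect of over 65% in size; a mitochondrial uncoupler was the plate control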
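Fluorescence from anti-PINK1 antibody, together with nuclear and cell stains, was scanned on a laser-scanning cytometer. Before staining, stable-line cells were incubated 24 hours with compounds at 5 concentrations; primary antibody 12 h at 10 degrees C.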
D2 agonist = human D2 receptor agonism in beta-arrestin assay | P14416 | DiscoveRx PathHunter D2 beta-arrestin, luminescence, 90 min; 100% = 57 uM dopamine signal | activation, % (concentration not given with the values) | 360,000 tested, 0.084% active | AID 624465; in the data active = activation above about 40%; inconclusive = about 15% to 40%; inactive = below about 15%; note: compound concentration not given in the record; the text of the record calls up to 30% inactive
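Agonist mode: compounds alone added to overnight-plated D2 PathHunter cells for 90 min at 37 C, with 57 uM final dopamine (EC100) defining full response. Beta-arrestin recruitment detected by chemiluminescent reagent, read after 1 h at ambient temperature.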
* hit, by the source's call; ? = inconclusive; / = not tested or not shown; & = joins results of further samples; [ ] = dose if it differs, or a comment.

SMILES	Six1-Eya2 blk	D2 PAM	TRPML1 inh	TRPML1 ag	PINK1 expr mod	D2 agonist
CC1=CCC2C(=O)N(c3ccc(Br)cc3C)C(=O)C2C1 (configuration not stated)	3	-10	2	-0.1	1.1%	-4.3
CC1CCc2sc(C(=O)N(C)CC(=O)Nc3cccc(F)c3)cc2C1 (configuration not stated)	-5	-1	43	0.8	2.4%	-3.1
CCOC(=O)c1[nH]c(C)c(C(=O)NC2CCCCCC2)c1C	20	-15	-3	-1.1	1.1%	-3.9
CC(C)(C)NC(=O)C1CCN(C(=O)c2ccc(Br)cc2)CC1	6	-7	0	0.2	0.7%[38.3 µM]	2.4
O=C(OCCCN=C1NS(=O)(=O)c2ccccc21)C1CC(=O)N(c2ccc(Cl)cc2)C1 (configuration not stated)	5	-12	-4	1.2	-1.8%	-3.9
Cn1ccnc1C(=O)c1ccc(N)cc1	9	-4	-17	-0.5	0.7%	1.8
C[N+]1(CN2C(=O)C3C4C=CC(C4)C3C2=O)CCCCC1 (configuration not stated)	-1	-2	16	-0.1	1.3%	-4.9
O=C(CN1C(=O)C2C3C=CC(C3)C2C1=O)NCCN1CCCc2ccccc21 (configuration not stated)	3	-9	-8	-0.2	-2.1%	-3.0
Cc1nnc(SCc2ccc(CSc3nnc(C)c(=O)[nH]3)cc2)[nH]c1=O	4	-4	2	0.1	?	-16
CCOCCCNC(=O)C(NC(=O)Cc1cccs1)c1ccc(Cl)cc1 (configuration not stated)	0	1	-5	-0.5	0.8%	-3.2
C=CCn1c(CCn2c3ccccc3c3ccccc32)n[nH]c1=S	9	-6	7	1.2	0.1%	1.8
CCCCN1C(=O)c2[nH]nc(-c3ccccc3O)c2C1c1ccc(C(C)(C)C)cc1 (configuration not stated)	/	/	-11	-0.5	1.9%	/
CC(C)(C)OC(=O)N1CCC[C@H]1c1nnc(SCc2ccc(Cl)cc2)o1	2	-11	17	1.8	0.2%	-0.9
O=S(=O)(NCCc1ccc2c(c1)OCCO2)c1cccs1	3	-11	9	-0.4	0.1%	-1.8
CC1COc2ccccc2N1S(=O)(=O)c1ccc(Cl)cc1 (configuration not stated)	2	-2	77	5.4	?	3.6
NC(=O)COc1ncnc2scc(-c3ccc(F)cc3)c12	-13	-16	-8	-0.2	1.7%	-1.9
Cn1ncc([N+](=O)[O-])c1C(=O)Nc1ccn(Cc2ccccc2F)n1	1	-9	18	-0.8	2.5%[38.3 µM]	0.5
CCn1c(SCC(=O)NCCc2ccccc2)nc2sc3c(c2c1=O)CCN(C)C3	-17	-5	25	4.1	4.4%	-8.4
CCOc1ccccc1NC(=O)c1nc(SC(C)C)ncc1Cl	/	/	4	0.3	1.7%	/
CC(=O)c1ccc(OCC(O)Cn2nnc3ccccc32)cc1 (configuration not stated)	-4	2	9	-0.6	-2.4%[38.3 µM]	0.4
COc1ccc(Cl)cc1Cn1c(C)c(C(=O)NCc2ccc3c(c2)OCCO3)sc1=O	-18	4	/	5.2	0.0%	9.8
Cc1ccc(C)c(S(=O)(=O)N/N=C/c2ccc(N3CCOCC3)cc2)c1	0	-7	-3	0.8	1.5%	-2.2
COc1ccccc1CNC(=O)C1CCN(c2nnc(C)c3c(C)n(-c4ccccc4)nc23)CC1	/	/	3	0.8	-0.7%	/
COc1ccc([N+](=O)[O-])cc1N(CC(=O)NCCC1=CCCCC1)S(C)(=O)=O	-2	15	-9	-0.5	-0.2%	-1.5
O=C(Oc1ccc[nH]c1=O)c1ccc(F)cc1	0	-8	-4	-0.2	2.4%	-5.9

Random excerpt: 3 entries already listed, in no set order.
SMILES	Six1-Eya2 blk	D2 PAM	TRPML1 inh	TRPML1 ag	PINK1 expr mod	D2 agonist
CC1COc2ccccc2N1S(=O)(=O)c1ccc(Cl)cc1 (configuration not stated)	2	-2	77	5.4	?	3.6
CC(C)(C)NC(=O)C1CCN(C(=O)c2ccc(Br)cc2)CC1	6	-7	0	0.2	0.7%[38.3 µM]	2.4
CCOC(=O)c1[nH]c(C)c(C(=O)NC2CCCCCC2)c1C	20	-15	-3	-1.1	1.1%	-3.9

(list continues)
SMILES	Six1-Eya2 blk	D2 PAM	TRPML1 inh	TRPML1 ag	PINK1 expr mod	D2 agonist
CCOC(=O)C(Cc1ccccc1)(NC(C)=O)C(=O)OCC	4	-4	-15	0.5	2.1%[38.3 µM]	-1.3
Cc1ccc(NC(=O)/C(C#N)=N/Nc2ccc(C(=O)O)cc2)c(C)c1	-1	-14	16	-0.2	0.5%	-5.7
Cc1ccc(S(=O)(=O)N2CCN(C(=O)c3ccc(-n4cncn4)c([N+](=O)[O-])c3)CC2)c(C)c1	-5	2	-9	-0.7	-0.4%	3.4
COc1ccc(NC(=O)Nc2cccc3c2O[C@H](CN(C)C(=O)Nc2ccc(C(F)(F)F)cc2)[C@@H](C)CN([C@H](C)CO)C3=O)cc1	-10	3	1	0.0	0.0%	5.2
O=C(N/N=C\c1ccc([N+](=O)[O-])s1)c1cncc(Br)c1	-16	-1	-17	1.0	?	-2.9
CC(C)CCNC(=O)c1cn(CC(C)C)c(=O)c2c1c1ccccc1n2C	-2	-1	-24	-0.5	0.9%	-1.9
CCc1ccc([C@@H]2CC=C(C(=O)O)[C@H](c3cccc(Cl)c3)N2S(=O)(=O)c2ccc(C)cc2)cc1	-2	-2	-1	-0.3	2.3%	-3.1
N#CCC(=O)N/N=C/c1coc2ccccc2c1=O	-19	-8	9	0.3	0.2%	-0.4
O=c1c2c(-c3cccs3)csc2ncn1-c1ccc(Br)cc1	8	1	36	1.6	-4.0%	-3.5
CCCOC(=O)c1c(N)sc(C(=O)OCC)c1C	-15	2	3	0.8	7.2%	-1.8
O=C1S/C(=C/c2ccccc2F)C(=O)N1CCN=C1NS(=O)(=O)c2ccccc21	-9	-4	31	0.0	2.4%	-0.3
Clc1ccccc1CNCCCSc1nnnn1-c1ccccc1	/	/	12	-0.1	0.8%	/
CC(=O)Oc1c(Cl)cc(Cl)cc1/C=C/c1ccc2ccccc2n1	42	-16	-21	0.8	?	2.7
C[C@@H]1COC(=O)[C@H](NC(=O)OCC2c3ccccc3-c3ccccc32)C/C=C\C[C@@H](CC(=O)N[C@@H](CO)Cc2ccccc2)C(=O)N1	1	0	6	-0.9	-0.4%	-2.7
Cc1ccnc(NC(=O)c2cnc(Cl)c(Cl)c2)c1	-4	-6	0	0.1	1.1%	-1.8
CC(C)(C)c1ccc(OCc2ccc(C(=O)N3CCOCC3)o2)cc1	-12	-2	5	4.6	1.2%	0.9
Cc1ccc(SCc2c(C(=O)N/N=C/c3ccncc3)nnn2-c2nonc2N)cc1	8	-15	-1	-0.2	3.3%	-0.1
CN(C)C(=S)Nc1ccc(N2CCOCC2)cc1	5	-3	8	4.2	3.2%	-4.4
O=C(O)c1cc(=S)nc[nH]1	?	-10	-3	3.0	0.7%	1.0
Cc1cc(SCC(=O)Nc2nsc(-c3ccc(C(C)(C)C)cc3)n2)nc2ccccc12	/	/	3	0.0	8.9%	/
CCN1/C(=C\c2ccc3cc(C)ccc3[n+]2CC)Sc2cc(C)c(C)cc21	-21	-7	18	9.3	?	-6.8
CC/C=C/C(=O)N1CC2(CC(c3cccc(NC(=O)CC(c4ccccc4)c4ccccc4)c3)=NO2)C[C@@H]1C(N)=O (some centres not stated)	-22	2	1	-0.4	0.4%	0.4
Cc1ccc(OCC(=O)Nc2sc3c(c2C(N)=O)CCCC3)c(C(C)(C)C)c1	/	/	16	1.4	8.2%	/
COc1cc(C2CC(=O)c3cnc(NC(=O)COc4ccccc4)nc3C2)cc(OC)c1OC (configuration not stated)	1	0	9	0.2	-3.2%[38.3 µM]	-0.4
CN(C)c1ccc(C(=O)N/N=C/c2cc(Br)cc(Br)c2O)cc1	-2	-20	42	1.1	6.9%	-4.9

(continued)
SMILES	Six1-Eya2 blk	D2 PAM	TRPML1 inh	TRPML1 ag	PINK1 expr mod	D2 agonist
Cc1cccc(CSc2nc3sc(C)c(C)c3c(=O)n2Cc2ccco2)c1	1	-8	-7	-0.1	/	0.1
CC(=O)c1cccc(NC(=O)C=C(C)C)c1	-7	16	-10	-0.2	/	-2.8
Cc1ccc(C2NC(=O)NC(O)(C(F)(F)F)C2C(=O)c2cccs2)o1 (configuration not stated)	-2	2	12	0.3	7.3%[38.3 µM]	-2.5
COc1ccccc1Nc1nn2c(=O)c3ccc(C(=O)N4CCC(C)CC4)cc3nc2s1	-9	?	33&-8	-0.3&0.5	-1.4%&-4.7%	0.1
Fc1cc(F)cc(-c2c(-c3ccccc3)ncc3ccc(F)cc23)c1	1	-5	34	1.1	19%	-4.6
COc1ccc(CC(=O)NNC(=O)c2cc(C)oc2C)cc1OC	8	-33	-1	0.1	-1.0%	-5.8
Cc1ccc2nc(-c3ccc(NC(=S)NCC(C)(C)CN(C)C)cc3)sc2c1	4	-3	13	-0.5	?	0.7
O=C(/C=C/c1ccco1)Nc1ccc(CN2CCOCC2)cc1	0	0	6	0.9	-0.7%	2.4
Cc1ccc(Cc2c(-c3ccc(Br)cc3)nc3cc(C)ccn23)cc1	-4	-2	21	0.0	?	-9.3
Cc1cc(C(=O)N2CCC(C(=O)O)CC2)c(C)o1	14	-5	1	-0.6	0.6%	-3.7
COc1cc2c(cc1OC)-c1cc(N3CCCc4ccccc43)nc(=O)n1CC2	-2	-12	-2	-0.3	0.7%[38.3 µM]	-0.7
CCCc1cc(N2CCN(c3ccc(OC)cc3)CC2)n2cnnc2n1	/	/	20	0.5	-1.0%	/
CCCCN1C(=N)N([C@@H](CCC)CN2CCC[C@H]2CN2C(N)=NC[C@@H]2Cc2ccccc2)C[C@H]1[C@H](C)CC	0	-97	-6	-0.5	0.3%	-1.8
CCCCCN(C(=O)COC(=O)c1ccc(C)cc1)c1c(N)n(CCCC)c(=O)[nH]c1=O	4	-3	6	0.8	3.5%	3.2
CN(CC(=O)Nc1ccc(F)c(F)c1F)C(=O)CCCc1nc2ccccc2c(=O)[nH]1	15	-10	3	-0.2	-0.2%	-4.8

No enrichment for hits. Share with any hit: about 1%.
